VDR inh = Inhibitors of the vitamin D receptor (VDR): qHTS; VDR-SRC2-3 peptide fluorescence polarization, 2 h; Vitamin D3 receptor (Homo sapiens), P11473; 400,000 compounds, 0.93% hits; Potency, µM, without a hit: max response, negative = inhibition, hits mostly inhibitors; active means well fitted inhibition curve with a large enough effect; inconclusive means small, poorly fitted or top-dose-only effect, or another doubt; inactive means no such curve, though single readings can be large or run the other way; further: series mostly up to about 120 µM
Target sequence (P11473 whole entry, looked up): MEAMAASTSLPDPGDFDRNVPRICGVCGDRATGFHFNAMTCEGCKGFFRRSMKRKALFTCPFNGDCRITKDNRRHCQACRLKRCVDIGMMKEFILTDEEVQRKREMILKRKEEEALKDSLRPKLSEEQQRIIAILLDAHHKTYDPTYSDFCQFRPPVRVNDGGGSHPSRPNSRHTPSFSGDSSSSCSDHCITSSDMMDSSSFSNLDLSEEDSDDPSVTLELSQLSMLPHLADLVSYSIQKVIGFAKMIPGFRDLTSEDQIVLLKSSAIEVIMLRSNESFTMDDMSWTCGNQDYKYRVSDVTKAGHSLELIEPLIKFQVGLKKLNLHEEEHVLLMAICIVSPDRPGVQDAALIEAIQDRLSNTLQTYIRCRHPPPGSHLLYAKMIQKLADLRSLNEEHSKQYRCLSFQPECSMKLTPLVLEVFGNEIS
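Fluorescence polarization assay of small-molecule disruption of VDR binding to coregulator peptide SRC2-3. Compounds and controls pin-transferred, then read after 2 h incubation at ambient room temperature.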
* marks the source's active call; other numbers are inactive results; ? = inconclusive; & = joins results of further samples; [ ] = dose if it differs, or a comment. On the % scale 0 is the no-effect control and ±100 the full control effect; potency means the concentration at half of the fitted maximal effect. Not all compounds are listed, so the mix of outcomes need not match the whole.

Structure	VDR inh
CCOc1ccc(NC(=O)CN2CCN(CC(=O)Nc3ccccc3OC)CC2)cc1	2%
CS(=O)(=O)Nc1ccc(C2=NN(C(=O)c3ccccc3)C(c3cccs3)C2)cc1 (centres undefined)	39%[activator]
CC1(C)CC(=O)/C(=N/Nc2ccc(Cl)cc2)CO1	-3%
CCOC(=O)NC(=O)c1cn(N(C)c2ncc(C(F)(F)F)cc2Cl)c(=O)[nH]c1=O	20%
CCN(CC)S(=O)(=O)c1ccc(OC)c(NC(=O)c2cc(=O)[nH]c3ccccc23)c1	2%
Nc1c(S(=O)(=O)c2ccccc2)c2nc3ccccc3nc2n1CCN1CCOCC1	-1%
CCOC(=O)c1c(C)nn(-c2ccc(NC(=O)c3c(C)noc3C)cc2)c1C	-10%
Cc1noc(/C=C/c2cccs2)c1S(=O)(=O)N1CCC(C(=O)NCCCN2CCC(C)CC2)CC1	-7%
O=C(NNC(=S)Nc1ccccc1)c1ccncc1	-29%
CC(=O)N=C1SC2CS(=O)(=O)CC2N1Cc1ccc(C)cc1 (centres undefined)	-10%
COc1cc2cc(C)c3nnc(SCC(=O)Nc4cc(C)on4)n3c2cc1OC	2%
COc1cccc(O)c1CN1CCC(C(=O)Nc2ccc(Oc3cccnc3)cc2)CC1	-9%
CN(C)/C=C/c1oc2ccc(O)cc2c1[N+](=O)[O-]	1%
O=C(COC(=O)Cc1ccccc1F)Nc1cc(S(=O)(=O)N2CCOCC2)ccc1N1CCCC1	-6%
COc1cc(NC(=O)Cn2c(=O)n(Cc3ccccc3)c(=O)c3oc4ccccc4c32)cc(OC)c1	8%
Nc1nc2ccccc2n1Cc1ccc(Cl)c(Cl)c1	-3%
Cc1cc([N+](=O)[O-])nn1CCCC(=O)Nc1ccc2c(c1)OCO2	-16%
Cc1nc(NCc2ccco2)nc2c1C(=O)CC(C)C2 (centres undefined)	22%
O=C(Nc1cccc2cccnc12)c1cccs1	-3%
O=C(O)/C=C/C(=O)NCc1ccccn1	9%
COc1ccc(Cn2c(CCC(=O)Nc3ccc(C)cc3C)nc3cccnc32)cc1	-13%
Cc1noc(C)c1C(=O)N1CCN(S(=O)(=O)c2cccs2)CC1	-2%
CC(=O)c1c(C)[nH]c(C(=O)OCC(=O)N2c3ccccc3NC(=O)C2(C)C)c1C	-1%
CCOC(=O)NC(=O)/C(C=Nc1ccc(Cl)cc1)=C(\C)O	8%
COc1ccc2oc(C(=O)c3ccccc3)c(N)c2c1	2%
COc1cc(C(=O)OCc2nc3ccsc3c(=O)[nH]2)c([N+](=O)[O-])cc1OC	-1%
N#Cc1sc(C(N)=O)c(-c2ccccc2)c1-c1ccccc1	6%
COc1ccccc1CN1CCC2(CC1)CCN(S(=O)(=O)c1ccccc1)CC2	-2%
COC(=O)c1ccc(C(=O)Nc2ccc(-c3nc4cc(NC(=O)c5ccc(C(=O)OC)cc5)ccc4o3)cc2)cc1	1%
COc1ccc2cc3c(nc2c1)OCC3	-10%

Gathered by group, those above with an NH in an aromatic ring (4)
Structure	VDR inh
CCOC(=O)NC(=O)c1cn(N(C)c2ncc(C(F)(F)F)cc2Cl)c(=O)[nH]c1=O	20%
CCN(CC)S(=O)(=O)c1ccc(OC)c(NC(=O)c2cc(=O)[nH]c3ccccc23)c1	2%
CC(=O)c1c(C)[nH]c(C(=O)OCC(=O)N2c3ccccc3NC(=O)C2(C)C)c1C	-1%
COc1cc(C(=O)OCc2nc3ccsc3c(=O)[nH]2)c([N+](=O)[O-])cc1OC	-1%

Carrying on:
Structure	VDR inh
O=C(Nc1ccccc1N1CCCCC1)C1=COCCO1	-28%
CSc1ccc(CCNC(=O)CN2C(=O)c3cccnc3Oc3ccc(C)cc32)cc1	-6%&1%
COCCNC(=O)[C@H]1C[C@@H]1[C@H](NP(=O)(c1ccccc1)c1ccccc1)c1ccccc1	6%
COc1ccc2c(c1)C(c1ccc(Cl)cc1)NC(=O)C2 (centres undefined)	-15%
Cn1cccc1-c1nc2ccc(NC(=O)c3ccco3)cc2[nH]1	-7%
CCNc1nc(NCC)nc(C(=O)OCCO)n1	-14%
Oc1c(C=Nc2ccc(Cl)cn2)sc2ccccc12	5%
Cc1cc(NC(=O)c2ccccc2Oc2ccccc2)no1	3%
O=C1c2ccccc2C(Nc2ccc(S(=O)(=O)N3CCCCCC3)cc2)N1Cc1ccco1 (centres undefined)	-1%
CC(C)CCNc1ncnc2c1cnn2Cc1ccccc1Cl	11%
CCN(CC(=O)Nc1cccc(S(=O)(=O)N2CCCCC2)c1)Cc1ccccc1	6%
CC(C)(C)CN1CCNC(=O)C1CC(=O)NCCN1CCCc2ccccc21 (centres undefined)	10%
CN1CCN(NC(=O)/C=C/c2cccc(Cl)c2)CC1	-7%
CCOC(=O)c1c(NC(=O)c2nn(C)cc2[N+](=O)[O-])sc(C)c1C	3%
CNc1oc(C)nc1S(=O)(=O)c1ccc(C)cc1	-17%
COc1ccc(C(=O)Nc2ccc3oc(-c4cccnc4)nc3c2)cc1	-18%
CCn1cc(/C=C/C(=O)Nc2ccn(Cc3c(F)c(F)cc(F)c3F)n2)cn1	?
O=C(Nc1ccc(-c2n[nH]c(=S)o2)cc1)c1ccccc1Cl	-22%
CN(c1cc(=O)n2ccccc2n1)C1CCCCC1	-2%
Cn1c(=O)cc(NCc2ccccc2)[nH]c1=O	-10%
COCCCNC(=O)c1ccc(CS(=O)(=O)c2ccccc2C)o1	13%
COCCN1Cc2cccc(C(=O)NCc3ccc4c(c3)OCO4)c2C1=O	8%
COc1ccccc1OCCC(=O)OCC(=O)NCc1ccccc1	-14%
CCCCNC(=O)NS(=O)(=O)c1ccc(NS(=O)(=O)c2ccccc2)cc1	9%
O=C(CCCCCCN1C(=O)c2ccccc2C1=O)NC1CCCCC1	0%
COc1cc(S(=O)(=O)N2CCOCC2)ccc1NC(=O)CSc1nnc(N)s1	-4%
CCOc1ccc(CN2C(=O)c3ccccc3C2=O)cc1C(=O)O	-4%
O=C(CN1CCN(S(=O)(=O)c2ccc(F)cc2)CC1)NCC1(N2CCOCC2)CCCCC1	-14%
O=C(COC(=O)c1cccc(F)c1)NC1CC1	4%
CCc1c(O)nc(SCC(=O)Nc2ccccc2C)[nH]c1=O	10%

The closing 3 entries of the section before open the next one.
smiles	VDR inh
O=C(CN1CCN(S(=O)(=O)c2ccc(F)cc2)CC1)NCC1(N2CCOCC2)CCCCC1	-14%
O=C(COC(=O)c1cccc(F)c1)NC1CC1	4%
CCc1c(O)nc(SCC(=O)Nc2ccccc2C)[nH]c1=O	10%
Cc1ccc(S(=O)(=O)NCCC(=O)N2CCN(S(=O)(=O)c3cccc(F)c3)CC2)cc1C	3%
O=C(O)CCC(=O)N1N=C(c2ccco2)CC1c1ccco1 (centres undefined)	-8%
CC(C)(C)n1nnnc1C(c1cccc(C(F)(F)F)c1)N1CCOCC1 (centres undefined)	9%
COc1ccc(C)cc1S(=O)(=O)N1CCC(C(=O)N2CCOCC2)CC1	13%
CCc1ccc(NC(=O)NCc2ccccn2)cc1	-13%
Cc1cc(CC(C)C)n(-c2nc3ccccc3c(=O)n2OCc2ccccc2)n1	6%
COc1ccc(OC)c(C2C(C(C)=O)=C(C)Nc3ncnn32)c1 (centres undefined)	-6%
CCOc1ccccc1N1CCN(Cc2ccc(Br)s2)CC1	-6%
CC(C)(C)c1ccc(C(=O)NCCCNC(=O)c2cccnc2)cc1	6%
COc1cc(OC)c(NC(=O)c2c(C)oc3ncn(C)c(=O)c23)cc1Cl	-5%
O=C(Cn1ncc2c3ccccc3n(Cc3cccc(Cl)c3)c2c1=O)N1CCCCCC1	-1%
CC1CCc2nc(NC(=O)c3cc(C(C)(C)C)nn3C)sc2C1 (centres undefined)	-9%
CC1CC(C)CN(CCCNC(=O)Cc2c(C(=O)O)[nH]c3ccccc23)C1 (centres undefined)	-4%
COc1ccc(C(=O)OCC(=O)N2CCc3ccccc3C2)cc1OC	5%
O=c1[nH]c2cc(F)ccc2c2ccc(F)cc12	6%
Cc1ccc2nc(NCc3ccccc3)c3nnnn3c2c1	2%
CCC(=O)Nc1ccccc1-c1nc2ccccc2n(CC(=O)Nc2ccc(C)c(C)c2)c1=O	1%
CCCN(CCC)c1nc(Cl)nc(NCc2ccco2)n1	3%
COc1ccc(NC(=O)N2CCN(C(=O)Nc3ccc(OC)cc3)CC2)cc1	10%
Cc1cc(C)c(S(=O)(=O)N2CCN(Cc3nc4ccc(C)cc4o3)CC2)c(C)c1	10%
CNC(=S)N(CCc1c(C)[nH]c2ccc(C)cc12)Cc1cccnc1	-18%
CCOC(=O)C(C)NC(=O)CCc1nnc2ccc(N3CCC(C)CC3)nn12 (centres undefined)	-7%
CC(C)(C)NC(=O)CSc1nnc(Cc2ccccc2)n1CC1CCCO1 (centres undefined)	13%
O=C(Cn1cc(S(=O)(=O)N2CCCC2)c(S(=O)(=O)N2CCCC2)c1)Nc1cccc(F)c1	9%
O=C(O)CCNS(=O)(=O)c1ccc(Oc2ccccc2)cc1	-5%

More entries:
smiles	VDR inh
COc1ccccc1C(CNC(=O)C(CCSC)NC(=O)c1ccccc1Cl)N1CCCC1 (centres undefined)	13%
CCOC(=O)CCC(NC(=O)CCCCCCCC(=O)NC(CCC(=O)OCC)C(=O)OCC)C(=O)OCC (centres undefined)	-10%
CCCN1CNc2c(c(=O)[nH]c(=S)n2CCc2cc(Cl)ccc2Cl)C1	-8%
COc1ccc(NC(=O)CCCCn2c(=O)[nH]c3ccccc3c2=O)cc1	4%
N#Cc1cn(CC(=O)O)c2ccccc12	13%
Cc1nc(-c2cccc(NC(=O)Cc3ccccc3)c2)cs1	-8%
CN(C)S(=O)(=O)c1cccc(NC(=O)CN2C(=O)C3C4C=CC(C4)C3C2=O)c1 (centres undefined)	2%
COc1ccc(CCNC(=O)C2CCCN(C(=O)c3ccc(Cl)cc3)C2)cc1 (centres undefined)	-3%
O=C(O)COc1ccccc1Cc1ccccc1	-6%
CC(CNC(=O)CCCn1c(=O)c2cccn2c2ccc(F)cc21)c1ccccc1 (centres undefined)	9%
COc1ccc(C(=O)Nc2ccc3ccccc3n2)c(OC)c1OC	-8%
O=C(CSc1nc(O)c(C2CCCCC2)c(=O)[nH]1)Nc1ccc(F)cc1	7%
Cc1cccnc1NC(=O)c1ccc2c(c1)NC(=O)C(C)S2 (centres undefined)	-8%
CCN(C(=O)C1CSC2(C)CCC(=O)N12)c1nc2c(C)cccc2s1 (centres undefined)	-16%
CCNC(=O)COC(=O)c1cc(S(=O)(=O)N2CCCc3ccccc32)ccc1Cl	-20%
Cc1ccc2nc(-c3cccc(-c4nc5ccc(C)cc5o4)n3)oc2c1	50µM*
CCC(C)n1cnc2c(=O)oc3ccccc3c21 (centres undefined)	6%
Cc1ccc(CCNS(=O)(=O)c2cnc[nH]2)cc1	4%
CCN(CC)CCCC(C)NC(=O)c1cc(=O)c2ccccc2o1 (centres undefined)	-11%
O=C(C[C@H]1C/C=C/CC[C@@H](Cc2ccc(F)cc2)C(=O)O[C@@H](c2ccccc2)CNC1=O)NCCO	-11%
COc1ccc(-n2c(SCC(=O)Nc3nccs3)nc3sc4c(c3c2=O)CCN(C)C4)cc1	-23%
CCOc1ccc(C2CC(=O)NC3=C2C(=O)CCC3)cc1 (centres undefined)	6%
CCn1cc(C(=O)O)c(=O)c2cc(F)c(N3CCN(C(=S)NC(=O)c4ccccc4F)CC3)cc21	2%
O=C(COC(=O)/C=C/c1ccc(Cl)cc1)Nc1ccc2[nH]c(=O)[nH]c2c1	-10%
CCC(=O)Nc1ccc(C(=O)CSc2nc3ccccc3cc2CC)cc1	-2%

Remaining list, next part.
smiles	VDR inh
O=C(c1cc2ccccc2oc1=O)N(Cc1ccc(F)cc1)C1CCS(=O)(=O)C1 (centres undefined)	7%
Cn1c(=O)n(C)c2cc(N3CCCCC3)c(NC(=O)Nc3ccc(Br)cc3)cc21	-3%
CCOC(=O)N1CCN(C(=O)COC(=O)CSc2ccc([N+](=O)[O-])cc2)CC1	-13%
CN(C(=O)COC(=O)c1ccc(=O)n(Cc2ccccc2)n1)c1ccccc1	?
C#CCSc1n[nH]c(-c2ccco2)n1	-5%
CC(C)NC(=O)N1[C@H](c2cccs2)[C@@H](C)C(=O)[C@@H](C)[C@@H]1c1cccs1	1%
Cc1ccsc1C1C(C(=O)O)c2ccccc2C(=O)N1C (centres undefined)	0%
O=C1CCCC2=C1C(c1ccco1)Nc1ccc3ccccc3c12 (centres undefined)	7%
CCN(CC)c1c([N+](=O)[O-])c(=O)sc2ccccc12	-11%
COc1cccc(-c2nc(CS(=O)(=O)CC(=O)NCc3ccccc3)c(C)o2)c1	-9%
CCC1=C(C)CN(C(=O)NCCc2ccc(S(=O)(=O)NC(=O)NC3CCC(C)CC3)cc2)C1=O (centres undefined)	-3%&1%&-3%
Cn1c(Cc2cccs2)nnc1SCC(=O)Nc1ccccc1F	1%

Structures listed above printed as active in VDR inh.
smiles	VDR inh
Cc1ccc2nc(-c3cccc(-c4nc5ccc(C)cc5o4)n3)oc2c1	50µM*

High-throughput results deposited in PubChem BioAssay by National Center for Advancing Translational Sciences (NCATS).
